MT1-MMP act inh: blocks activation of human MT1-MMP; P50281; HT1080 RFP-PRO-GFP cells, GFP/RFP ratio fluorescence, overnight; percent of plate control window, DMSO zero; GFP/RFP ratio change, % at 20 µM; actives 0.061% (n = 360,000);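 active means GFP/RFP ratio change of at least 30% with cell ATP level not reduced by more than half and red fluorescence within 50% of control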; further: strong numbers were not always called active
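Material: RFP-PRO-GFP reporter HT1080 cells. Dosing: single-point 20 µM compound, 1% DMSO. Controls: DMSO and RFP-L50D-GFP cell wells. Timing: cells overnight before dosing, compound overnight, 37 °C, 5% CO2. Measure: GFP/RFP fluorescence ratio.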
HIV Env fusion: HIV envelope-mediated fusion inhibition; inhibition, % at 12.3 µM; actives 1.1% (n = 360,000); AID 651610; HeLa-JRFL Env/CEM21 cell fusion, luciferase;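 active means mean replicate inhibition score of at least 50 and every replicate individually at or above 50; inconclusive means only one of the two criteria met; inactive means mean below 50 and not all replicates reaching 50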;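 further: 0% = plate neutral controls and 100% = maraviroc near 300 nM; one replicate is shown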
CSC inhib: blocks cancer stem cells. actives 1.1% (n = 300,000). cancer stem cell-like cells viability, luminescence. AID 2717. inhibition, % at 7.5 µM;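 active means mean at 75% or more and at least half the replicates too; inconclusive means mean and replicates disagree; tested in HMLE shEcad cells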;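 further: 0% = median of negative and 100% = median of positive control wells; the first replicate is given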
PABP FP inh: blocks human PABP binding to poly(A) RNA; fluorescence polarization; P11940; inhibition, % at 35 µM; actives 1% (n = 290,000); AID 2014;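 active means 50% or more with normal probe brightness, or confirmed in later tests; inconclusive means above 50% with abnormal brightness, or retests that disagree; inactive means below 50% or failed in later tests; about a fifth of its hits are not listed in these tables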;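 further: calls also rest on retests at 20 µM and on dose response follow-up; controls were probe without protein and protein plus probe with vehicle; some compounds called inactive have numbers as strong as hits; many hits fall short of the cut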
Rce1 inh: yeast Ras-converting enzyme inhibition; yeast membranes, quenched prenylated peptide cleavage fluorescence; actives 0.27% (n = 290,000); Q03530; calls only;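 active means fall in fluorescence gain of 50% or more versus controls, with final raw signal at or below 3038400; inconclusive means same 50% fall but final raw signal above 3038400; inactive means fall in fluorescence gain under 50%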;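 further: plate controls were neutral control wells for no effect and wells lacking membranes for full effect; tested at 10 µM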
Target sequence (Q03530 whole entry, looked up): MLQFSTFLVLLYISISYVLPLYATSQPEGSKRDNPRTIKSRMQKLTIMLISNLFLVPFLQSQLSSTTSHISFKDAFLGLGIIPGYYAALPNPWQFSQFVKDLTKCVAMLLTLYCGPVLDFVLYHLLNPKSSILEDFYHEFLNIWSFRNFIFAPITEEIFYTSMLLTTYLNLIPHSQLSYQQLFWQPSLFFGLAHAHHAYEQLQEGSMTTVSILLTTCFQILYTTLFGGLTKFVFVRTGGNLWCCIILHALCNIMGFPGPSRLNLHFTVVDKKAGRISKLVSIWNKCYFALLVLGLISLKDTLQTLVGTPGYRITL
eIF4H FP inh: inhibitors of RNA binding by human eIF4H | Q15056 | eIF4H fluorescence polarization binding assay | inhibition, % at 35 µM | actives 0.94% (n = 290,000);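 active means 50% or more with normal probe brightness, or confirmed in later tests; inconclusive means above 50% with abnormal brightness, or retests that disagree; inactive means below 50% or failed in later tests; about a fifth of its hits are not listed in these tables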;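 further: calls also rest on retests at 20 µM and on dose response follow-up; 0% = protein and probe with vehicle and 100% = probe without protein; strong numbers were not always called active; many hits fall short of the cut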
Yeast UUG start: modulators of start codon recognition fidelity in yeast; activity score, % at 18.7 µM; actives 0.13% (n = 350,000); S. cerevisiae UUG-firefly luciferase reporter, luminescence/redox ratio;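 active means replicate mean at a twofold rise or more, about +100% in these data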;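 further: firefly luciferase made from a UUG start codon reports start codon fidelity; reporter light over untreated wells divided by growth signal over untreated wells; some hits fall short of that in this replicate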
MT1-MMP act inh RFP: second read-out of MT1-MMP act inh, no call of its own (marks repeat the call); RFP signal change, %; measured here: RFP expression control read;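 0 = vehicle wells; hits needed this value within 50% of zero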
Starred values were filed as active, the others as inactive; & = joins results of further samples.

Results for CC(=O)c1ccccc1OC(=O)CCN1C(=O)c2ccccc2C1=O ?
MT1-MMP act inh: -2; HIV Env fusion: 1; CSC inhib: -2; PABP FP inh: 16; Rce1 inh: inactive; eIF4H FP inh: 5; MT1-MMP act inh RFP: 1

What do the screens show for `Cc1ccc(NC(=O)NNC(=O)c2ccccc2)cc1`?
MT1-MMP act inh: 1; HIV Env fusion: -11; CSC inhib: 3; PABP FP inh: -6; Rce1 inh: inactive; eIF4H FP inh: 5; MT1-MMP act inh RFP: 4

Results for Cc1cc2c(NC(=O)Nc3ccc(F)cc3)cccc2nn1 ?
MT1-MMP act inh: 6; HIV Env fusion: 6; CSC inhib: -2; PABP FP inh: 38; Rce1 inh: inactive; eIF4H FP inh: 48; Yeast UUG start: 7; MT1-MMP act inh RFP: 4

How did CN(C)C(=O)c1sccc1Oc1ccc(F)cc1[N+](=O)[O-] do in these assays?
MT1-MMP act inh: 2; HIV Env fusion: 6; PABP FP inh: 1; Rce1 inh: inactive; eIF4H FP inh: -11; MT1-MMP act inh RFP: 2

What do the screens show for `Clc1cccc(-c2cc3nc(NCCOc4ccccc4)ccn3n2)c1`?
MT1-MMP act inh: 2; HIV Env fusion: -7; Yeast UUG start: -7; MT1-MMP act inh RFP: 4

How did CC1(C(=O)NCc2ccco2)Cc2c(-c3cccc(C(N)=O)c3)ccnc2O1 (stereo not drawn) do in these assays?
MT1-MMP act inh: 6; HIV Env fusion: 13; Yeast UUG start: -4; MT1-MMP act inh RFP: -2

How did O=c1c2ccccc2cnn1-c1ccc(Cl)cc1 do in these assays?
MT1-MMP act inh: 8; CSC inhib: -7; PABP FP inh: -9; Rce1 inh: inactive; eIF4H FP inh: -11; Yeast UUG start: -9; MT1-MMP act inh RFP: 2

Results for COc1ccccc1CNC(=O)CCCC(=O)n1ncc2cc(C)ccc21 ?
MT1-MMP act inh: 3; PABP FP inh: 8; Rce1 inh: inactive; eIF4H FP inh: -2; Yeast UUG start: -15; MT1-MMP act inh RFP: 5

Results for Cc1cccc(C(=O)/C=C2/c3ccccc3CC(C)(C)N2C)c1 ?
MT1-MMP act inh: -4; CSC inhib: -14; PABP FP inh: -6; Rce1 inh: inactive; eIF4H FP inh: 2; MT1-MMP act inh RFP: 2

Results for COc1cc(C(=O)O)c2ccccc2n1 ?
MT1-MMP act inh: -6; HIV Env fusion: 14; CSC inhib: 13; PABP FP inh: -3; Rce1 inh: inactive; eIF4H FP inh: -17; MT1-MMP act inh RFP: 0

Molecules from the list above with a carbonyl joined to an NH by a bond outside any ring, in the order listed:
What do the screens show for `Cc1ccc(NC(=O)NNC(=O)c2ccccc2)cc1`?
MT1-MMP act inh: 1; HIV Env fusion: -11; CSC inhib: 3; PABP FP inh: -6; Rce1 inh: inactive; eIF4H FP inh: 5; MT1-MMP act inh RFP: 4

Results for Cc1cc2c(NC(=O)Nc3ccc(F)cc3)cccc2nn1 ?
MT1-MMP act inh: 6; HIV Env fusion: 6; CSC inhib: -2; PABP FP inh: 38; Rce1 inh: inactive; eIF4H FP inh: 48; Yeast UUG start: 7; MT1-MMP act inh RFP: 4

How did CC1(C(=O)NCc2ccco2)Cc2c(-c3cccc(C(N)=O)c3)ccnc2O1 (stereo not drawn) do in these assays?
MT1-MMP act inh: 6; HIV Env fusion: 13; Yeast UUG start: -4; MT1-MMP act inh RFP: -2

Results for COc1ccccc1CNC(=O)CCCC(=O)n1ncc2cc(C)ccc21 ?
MT1-MMP act inh: 3; PABP FP inh: 8; Rce1 inh: inactive; eIF4H FP inh: -2; Yeast UUG start: -15; MT1-MMP act inh RFP: 5

The results go on.
Results for Nc1c(C(=O)Nc2cccc(F)c2)nnn1-c1cccc(C(F)(F)F)c1 ?
MT1-MMP act inh: 6; HIV Env fusion: -23; CSC inhib: 5; PABP FP inh: 18; Rce1 inh: inactive; eIF4H FP inh: 4; MT1-MMP act inh RFP: 0

What do the screens show for `COc1ccc2nc(N3C(=O)CC(Cc4ccc(Cl)cc4)C3=O)sc2c1` (stereo not drawn)?
MT1-MMP act inh: 4; CSC inhib: 8; PABP FP inh: -2; Rce1 inh: inactive; eIF4H FP inh: -9; Yeast UUG start: -13; MT1-MMP act inh RFP: 0

How did O=C(Nc1ccc(Cl)cc1Cl)c1ccc2c(c1)OCCO2 do in these assays?
MT1-MMP act inh: 1; CSC inhib: 12; Yeast UUG start: -18; MT1-MMP act inh RFP: -5

Results for COc1ccc(C2CC(=O)c3cnc(NC(=O)c4ccccc4)nc3C2)c(OC)c1 (stereo not drawn) ?
MT1-MMP act inh: 2; CSC inhib: 9; PABP FP inh: 16; Rce1 inh: inactive; eIF4H FP inh: -2; Yeast UUG start: -6; MT1-MMP act inh RFP: -5

Results for Cc1occc1C(=O)Nc1sc2c(c1C(N)=O)CCCCC2 ?
MT1-MMP act inh: -2; CSC inhib: 19; PABP FP inh: 26; Rce1 inh: inactive; eIF4H FP inh: 17; Yeast UUG start: -9; MT1-MMP act inh RFP: -2

How did Cc1ccc(N2C(=NC(=O)c3ccccc3)SC3CS(=O)(=O)CC32)cc1 (stereo not drawn) do in these assays?
MT1-MMP act inh: -1; HIV Env fusion: -7; CSC inhib: -1; PABP FP inh: -10; eIF4H FP inh: -10; Yeast UUG start: -9; MT1-MMP act inh RFP: -1

How did C[C@]12c3[nH]c4cc(-c5ccco5)ccc4c3CCN1C(=O)[C@@H](CC(=O)NCc1cccc(C(F)(F)F)c1)C[C@@H]2C(=O)N1CCOCC1 do in these assays?
MT1-MMP act inh: 1; HIV Env fusion: -50; Yeast UUG start: -5; MT1-MMP act inh RFP: -2

Results for CCn1ncc(Cl)c1C(=O)Nc1ccc2c(c1)CCC2 ?
MT1-MMP act inh: 0; HIV Env fusion: 1; CSC inhib: -3; PABP FP inh: -11; eIF4H FP inh: -13; Yeast UUG start: -6; MT1-MMP act inh RFP: -1

How did COc1ccccc1OCC(=O)NCC(c1cccs1)N1CCOCC1 (stereo not drawn) do in these assays?
MT1-MMP act inh: -2; HIV Env fusion: -9; CSC inhib: -5; PABP FP inh: -10; Rce1 inh: inactive; eIF4H FP inh: 1; Yeast UUG start: -6; MT1-MMP act inh RFP: 0

What do the screens show for `CCOC(=O)C1=CCN(S(=O)(=O)c2cccc(Cl)c2)C1c1cccc(F)c1` (stereo not drawn)?
MT1-MMP act inh: 2; HIV Env fusion: 25; Yeast UUG start: -16; MT1-MMP act inh RFP: -3

Results for Cc1ccc(S(=O)(=O)/N=C(/Sc2ccccc2C(=O)O)c2ccccc2)cc1 ?
MT1-MMP act inh: -2; HIV Env fusion: -1; CSC inhib: -21; PABP FP inh: 13; Rce1 inh: inactive; eIF4H FP inh: -9; Yeast UUG start: -5; MT1-MMP act inh RFP: 0

How did COc1ccccc1CNc1nc(-c2cc(C)n(C)c2C)cs1 do in these assays?
MT1-MMP act inh: -2; PABP FP inh: 40; eIF4H FP inh: inconclusive; MT1-MMP act inh RFP: 5

How did CN(C(=O)c1ccccc1C(=O)OCC(=O)c1ccc(Br)cc1)c1ccccc1 do in these assays?
MT1-MMP act inh: 1; HIV Env fusion: 0; CSC inhib: 3; Rce1 inh: inactive; Yeast UUG start: 13; MT1-MMP act inh RFP: -3

What do the screens show for `CCCCNC(=NCc1cccc(C(F)(F)F)c1)Nc1ccccc1`?
MT1-MMP act inh: -6; HIV Env fusion: 4; CSC inhib: 14; PABP FP inh: 4; Rce1 inh: inactive; eIF4H FP inh: 10; Yeast UUG start: -8; MT1-MMP act inh RFP: 1

Results for CCN(CCn1cccn1)C(=O)C1CCC(=O)N(CCc2cccc(F)c2)C1 (stereo not drawn) ?
MT1-MMP act inh: 0; HIV Env fusion: 11; CSC inhib: 10; PABP FP inh: 15; Rce1 inh: inactive; eIF4H FP inh: 1; Yeast UUG start: 15; MT1-MMP act inh RFP: -2

How did CCOC(=O)c1nnn(CC(=O)N2N=C(c3cccc4ccccc34)CC2c2ccccc2)c1C(=O)OCC (stereo not drawn) do in these assays?
MT1-MMP act inh: -6; HIV Env fusion: -131; CSC inhib: -4; PABP FP inh: 8; Rce1 inh: inactive; eIF4H FP inh: 2; Yeast UUG start: -5; MT1-MMP act inh RFP: -3

Results for CSc1nc2cc3c(cc2n1C(=O)c1ccc(C)cc1)OCCO3 ?
MT1-MMP act inh: 4; CSC inhib: -9; PABP FP inh: -4; eIF4H FP inh: 1; Yeast UUG start: -16; MT1-MMP act inh RFP: -1

How did COc1ccc(C(=O)NCC(=O)NCC(=O)OCC(=O)C(C)(C)C)cc1 do in these assays?
MT1-MMP act inh: 2; HIV Env fusion: 25; CSC inhib: -13; PABP FP inh: 2; Rce1 inh: inactive; eIF4H FP inh: -5; Yeast UUG start: -5; MT1-MMP act inh RFP: 2

How did C[C@H]1CN([C@@H](C)CO)C(=O)c2cc(NC(=O)Cc3ccccc3)ccc2O[C@H]1CN(C)Cc1ccccc1 do in these assays?
MT1-MMP act inh: -1; HIV Env fusion: -35; CSC inhib: -37; Yeast UUG start: -4&-3; MT1-MMP act inh RFP: 5

What do the screens show for `CC(C)Cn1c(-c2cccc(S(=O)(=O)N3CCOCC3)c2)n[nH]c1=S`?
MT1-MMP act inh: -2; CSC inhib: -12; Yeast UUG start: -11; MT1-MMP act inh RFP: -8

Results for Cc1cc2nc(-c3ccccc3O)[nH]c2cc1C ?
MT1-MMP act inh: 1; HIV Env fusion: -124; Yeast UUG start: -11; MT1-MMP act inh RFP: -6

Results for Cc1ccc(S(=O)(=O)N2C[C@H]3C(=O)C[C@@H](c4cccc(Cl)c4)N(S(=O)(=O)c4ccc(C)cc4)[C@H]3C[C@H]2c2ccc(Cl)cc2)cc1 ?
MT1-MMP act inh: -2; HIV Env fusion: -5; Yeast UUG start: -2; MT1-MMP act inh RFP: -3

Results for CCOC(=O)c1sc(CS(=O)(=O)c2ccc(Cl)cc2)nc1C ?
MT1-MMP act inh: -3; HIV Env fusion: 1; CSC inhib: 0; PABP FP inh: 2; Rce1 inh: inactive; eIF4H FP inh: -3; MT1-MMP act inh RFP: -2

Results for Cc1nc(-c2nc(C(=O)NNS(C)(=O)=O)cs2)cs1 ?
MT1-MMP act inh: 2; HIV Env fusion: -1; CSC inhib: -12; PABP FP inh: -8; Rce1 inh: inactive; eIF4H FP inh: 7; Yeast UUG start: -11; MT1-MMP act inh RFP: 2

How did CCOC(=O)c1c(C)n(C)c2cc(-c3ccc(C)cc3)c(O)cc12 do in these assays?
MT1-MMP act inh: 0; HIV Env fusion: 16; CSC inhib: 10; PABP FP inh: -11; Rce1 inh: inactive; eIF4H FP inh: 6; Yeast UUG start: -28; MT1-MMP act inh RFP: 0

What do the screens show for `NC(=O)CCC(NC(=O)OCc1ccccc1)C(=O)OCC(=O)c1ccccc1` (stereo not drawn)?
MT1-MMP act inh: 3; HIV Env fusion: -6; Yeast UUG start: -15; MT1-MMP act inh RFP: 5

How did C=CCNC(=S)NCC=C do in these assays?
MT1-MMP act inh: 1; CSC inhib: -11; PABP FP inh: 0; Rce1 inh: inactive; eIF4H FP inh: -11; Yeast UUG start: -25; MT1-MMP act inh RFP: 6

Results for CC(C)=CC1C(C(=O)NCCc2ccccc2)C1(C)C (stereo not drawn) ?
MT1-MMP act inh: -2; HIV Env fusion: 4; CSC inhib: 1; Rce1 inh: inactive; MT1-MMP act inh RFP: -1

Bioassay records as filed in PubChem.
